VDR inh – vitamin D3 receptor (human) inhibition | P11473 | Potency, µM, for the others: max response, negative = inhibition, actives largely listed as inhibitors | VDR-SRC2-3 peptide fluorescence polarization, 2 h | 400,000 compounds, 0.93% hits; active = well fitted inhibition curve with a large enough effect; inconclusive = small, poorly fitted or top-dose-only effect, or another doubt; inactive = no such curve, though single readings can be large or run the other way; also: series mostly up to about 120 µM
Target sequence (P11473 whole entry, looked up): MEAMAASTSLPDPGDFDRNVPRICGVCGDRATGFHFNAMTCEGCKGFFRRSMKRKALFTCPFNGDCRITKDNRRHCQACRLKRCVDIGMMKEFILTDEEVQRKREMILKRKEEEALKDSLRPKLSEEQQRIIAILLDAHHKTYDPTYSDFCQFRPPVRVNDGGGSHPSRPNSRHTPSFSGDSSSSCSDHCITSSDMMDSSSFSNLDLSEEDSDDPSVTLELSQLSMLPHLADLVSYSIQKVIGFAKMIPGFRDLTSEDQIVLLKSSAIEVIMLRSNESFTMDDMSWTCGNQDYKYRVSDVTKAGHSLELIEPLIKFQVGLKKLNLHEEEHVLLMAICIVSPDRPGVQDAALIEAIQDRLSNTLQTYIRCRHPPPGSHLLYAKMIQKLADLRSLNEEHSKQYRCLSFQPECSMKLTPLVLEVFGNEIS
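Measured by FP: displacement of SRC2-3 coactivator peptide from VDR by library compounds, following a two-hour ambient incubation.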
An asterisk follows results filed as active; ? = inconclusive; & = joins results of further samples. % is scaled to controls: 0 for no effect and ±100 for the full control effect; potency is read from the fitted curve at half-maximal effect. Not all compounds are listed. The share of hits here may be higher or lower than overall.

SMILES | VDR inh
CC(Oc1ccccc1Br)C(=O)N1CCc2ccccc21 (stereo unspecified) | 23%
CC(C)CCN(C(=O)c1csnn1)C(C(=O)NC1CCCC1)c1ccccc1 (stereo unspecified) | -11%
Cc1nc2ccccc2nc(C)c1=NOCc1ccc(Cl)cc1Cl | -7%
COc1cccc(C(=O)CN(C(=O)c2ccc(Cl)cc2Cl)N2C(=O)c3ccccc3C2=O)c1 | -5%
CC(=O)c1ccccc1NC(=O)COC(=O)/C=C/c1cccs1 | 5%
CCCNC(=O)COC(=O)/C=C/c1cccc(F)c1 | 22%
CCc1nn2c(N)c(/C=C3\C=Nc4ccccc43)c(=O)nc2s1 | -10%&-11%
O=c1[nH]c2cccnc2n1-c1cccc([N+](=O)[O-])c1 | -14%
Cc1oc2cc3oc(=O)c(CCC(=O)NCCCN4CCCC4=O)c(C)c3cc2c1C | -10%
O=C(NC1CCCC1)c1ccc(Cn2c(=O)[nH]c3ccsc3c2=O)cc1 | -3%
Cc1nnn(C23CC4CC(CC(C4)C2)C3)n1 | 3%
CCOc1ccccc1C(C(=O)NC1CCCC1)N(C(=O)c1csnn1)C1CC1 (stereo unspecified) | -1%
Cc1cc(C(=O)N2CCCC(C(=O)c3cccc4ccccc34)C2)nc(C)n1 (stereo unspecified) | 3%
CC(=O)Nc1ccc(C=NNc2ccc(S(=O)(=O)Nc3ccccc3C(=O)O)cc2[N+](=O)[O-])cc1 | ?
Cc1sc2nc(SCC(=O)Nc3ccc(S(=O)(=O)NCCCC(=O)O)cc3)[nH]c(=O)c2c1C | -16%

In a second layout: 3 of the compounds above
| VDR inh | Molecule |
| --- | --- |
| -7% | Cc1nc2ccccc2nc(C)c1=NOCc1ccc(Cl)cc1Cl |
| -11% | CC(C)CCN(C(=O)c1csnn1)C(C(=O)NC1CCCC1)c1ccccc1 (stereo unspecified) |
| 5% | CC(=O)c1ccccc1NC(=O)COC(=O)/C=C/c1cccs1 |

Further entries follow.
SMILES | VDR inh
O=C(NCc1ccco1)C(Cc1ccccc1)NS(=O)(=O)c1cccc2nsnc12 (stereo unspecified) | 5%
N#CCCn1cc(C(=O)N2CCCCC2)c(-c2cccc([N+](=O)[O-])c2)n1 | -16%
COc1cccc(-c2nc3c(C#N)c[nH]n3c2NC2CCCCC2)c1 | 8%
Cc1nc2c3cc(F)ccc3n(Cc3ccccc3F)c2s1 | 50µM*
Cc1cc(NC(=O)CCCN2C(=O)/C(=C\c3cccs3)SC2=S)no1 | 2%
COc1cccc(CN2CCc3nc(Nc4ccc5c(c4)OCCO5)ncc3C2)c1 | 15%
Cc1nn(CC(=O)c2ccccc2)c(=O)c2nn(-c3ccccc3F)c(C)c12 | -4%
CCOC(=O)N1CCN(CC(O)COc2ccccc2[N+](=O)[O-])CC1 (stereo unspecified) | -7%
S=C(NCCCCN(Cc1ccc(Cl)cc1)c1ccc(Br)cn1)NCCCc1cnc[nH]1 | -11%
CC1CCN(S(=O)(=O)c2cc(C(=O)Nc3ccc(Br)cc3F)n(C)c2)CC1 | 1%
O=C1NN=C(c2ccc(Br)cc2)CC1c1ccc(Cl)cc1 (stereo unspecified) | -5%
N#Cc1ccc(CNc2cnccn2)cc1 | -3%
CCOC(=O)COc1ccc(S(=O)(=O)NCCC2=CCCCC2)cc1 | -21%
Cc1cccc2sc(NNC(=O)c3ccc(S(=O)(=O)N4CCc5ccccc5C4)cc3)nc12 | -6%
COc1ccc(C2C(C#N)=C(N)OC3=C2C(=O)CC(C)(C)C3)cc1Cn1cc([N+](=O)[O-])cn1 (stereo unspecified) | -6%
CCn1ncc(/C=N/NC(=O)c2cc(Cl)ccc2OC)c1C | 4%
Cc1ccc(-n2c(C)cc(C(=O)COC(=O)c3ccc[nH]c3=O)c2C)cc1C | -9%
O=S(=O)(c1ccccc1)n1ccc2ccccc21 | -4%
COc1ccc(CCNC(=O)CCn2c(=O)c3ccccc3n(Cc3ccccc3)c2=O)cc1OC | 4%
C[C@H]1CN([C@@H](C)CO)C(=O)Cc2cc(NC(=O)C3CC3)ccc2O[C@H]1CN(C)Cc1ccc(C(=O)O)cc1 | ?

A draw from above in order of length of the SMILES, low to high:
SMILES | VDR inh
N#Cc1ccc(CNc2cnccn2)cc1 | -3%
O=S(=O)(c1ccccc1)n1ccc2ccccc21 | -4%
Cc1nc2c3cc(F)ccc3n(Cc3ccccc3F)c2s1 | 50µM*
O=C1NN=C(c2ccc(Br)cc2)CC1c1ccc(Cl)cc1 (stereo unspecified) | -5%
CCOC(=O)COc1ccc(S(=O)(=O)NCCC2=CCCCC2)cc1 | -21%
COc1cccc(-c2nc3c(C#N)c[nH]n3c2NC2CCCCC2)c1 | 8%
Cc1cc(NC(=O)CCCN2C(=O)/C(=C\c3cccs3)SC2=S)no1 | 2%
COc1cccc(CN2CCc3nc(Nc4ccc5c(c4)OCCO5)ncc3C2)c1 | 15%
Cc1nn(CC(=O)c2ccccc2)c(=O)c2nn(-c3ccccc3F)c(C)c12 | -4%
CC1CCN(S(=O)(=O)c2cc(C(=O)Nc3ccc(Br)cc3F)n(C)c2)CC1 | 1%
N#CCCn1cc(C(=O)N2CCCCC2)c(-c2cccc([N+](=O)[O-])c2)n1 | -16%
COc1ccc(CCNC(=O)CCn2c(=O)c3ccccc3n(Cc3ccccc3)c2=O)cc1OC | 4%
Cc1cccc2sc(NNC(=O)c3ccc(S(=O)(=O)N4CCc5ccccc5C4)cc3)nc12 | -6%
COc1ccc(C2C(C#N)=C(N)OC3=C2C(=O)CC(C)(C)C3)cc1Cn1cc([N+](=O)[O-])cn1 (stereo unspecified) | -6%
C[C@H]1CN([C@@H](C)CO)C(=O)Cc2cc(NC(=O)C3CC3)ccc2O[C@H]1CN(C)Cc1ccc(C(=O)O)cc1 | ?

Compound activity deposited in PubChem BioAssay by National Center for Advancing Translational Sciences (NCATS).
